UUG fidelity: alters start codon recognition fidelity in yeast; AID 602363; S. cerevisiae UUG-firefly luciferase reporter, luminescence/redox ratio; hit rate 0.13% among 350,000; activity score, % at 18.7 µM;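 active = replicate mean at a twofold rise or more, about +100% in these data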;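 also: firefly luciferase made from a UUG start codon reports start codon fidelity; reporter light over untreated wells divided by growth signal over untreated wells; some hits fall short of that in this replicate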
* marks the source's active call; other numbers are inactive results. Not all compounds are listed; count on the stated rates, not on these rows.

SMILES | UUG fidelity
Cc1ccccc1S(=O)(=O)N1CC[C@H]2[C@H](CO)Nc3ccc(-c4cccc(F)c4)cc3[C@H]21 | -8
C/C=C/c1ccc([C@@H]2[C@H](CO)N(CC3CC3)[C@H]2CNC(=O)c2ccccc2)cc1 | -12
Cc1ccc(-c2ccc([C@@H]3[C@H]4CN(C(=O)Nc5ccccc5)CCCCN4[C@H]3CO)cc2)cc1 | -3
CC(C)NC(=O)N1CC[C@@H]2[C@H]1c1cc(-c3cccc(F)c3)ccc1N(C)[C@H]2CO | 4
CN1c2ccc(-c3ccccc3)cc2[C@@H]2[C@@H](CCN2C(=O)CC2CC2)[C@@H]1CO | 19
C[C@@H]1CN([C@H](C)CO)C(=O)c2cc(NC(=O)Nc3ccc(C(F)(F)F)cc3)ccc2O[C@H]1CN(C)S(=O)(=O)c1cn(C)cn1 | -6
CCC(=O)N1[C@H](C(=O)NC2CCC2)[C@@H](CO)[C@@H]2Cn3c(ccc(C4=CCCCC4)c3=O)[C@@H]21 | 9
Cc1noc(C)c1NC(=O)Nc1ccc2c(c1)CC(=O)N([C@@H](C)CO)C[C@@H](C)[C@H](CN(C)Cc1ccncc1)O2 | 0
O=C(C1CCC1)N1CCCCN2[C@@H](CO)[C@H](c3ccc(-c4ccncc4)cc3)[C@@H]2C1 | -14
COc1cccc(S(=O)(=O)N2CCCCN3[C@H](CO)[C@@H](c4ccc(C#CCC(C)C)cc4)[C@H]3C2)c1 | 14
C[C@H](CO)N1C[C@H](C)[C@H](CN(C)CC2CC2)Oc2ccc(NS(=O)(=O)c3ccc(Cl)cc3)cc2CC1=O | -5
CN1c2ccc(-c3cccc(C#N)c3)cc2[C@H]2[C@H](CCN2S(=O)(=O)c2cccc(F)c2)[C@H]1CO | -10
CNC[C@H]1Oc2ccc(NS(=O)(=O)c3ccc(C)cc3)cc2C(=O)N([C@@H](C)CO)C[C@@H]1C | 2
COc1ccccc1NC(=O)N1C[C@@H]2[C@H](c3ccccc31)[C@@H](CO)N2C(=O)c1ccccc1 | 1
O=C(Nc1cccc(F)c1)N1CCCCN2[C@H](CO)[C@@H](c3ccc(C#Cc4cccnc4)cc3)[C@@H]2C1 | 13
CN1c2ccc(C#Cc3cccnc3)cc2[C@@H]2[C@@H](CCN2C(=O)Cc2cccnc2)[C@@H]1CO | -4
CN1C(=O)c2cc(NC(=O)C3CCCC3)ccc2OC[C@H]2O[C@H](CC(=O)NCC(F)(F)F)CC[C@@H]21 | -3
O=C(C[C@@H]1C[C@H]2c3cc(NC(=O)Nc4ccccc4)ccc3O[C@H]2[C@H](CO)O1)NCC(F)(F)F | 63
O=C(C1CCCC1)N1[C@H](CO)[C@H]2c3ccccc3N(S(=O)(=O)c3ccc(F)cc3)C[C@H]21 | 17
Cc1cc(C(=O)Nc2cccc3c2O[C@H](CN(C)S(=O)(=O)c2cccs2)[C@H](C)CN([C@H](C)CO)C3=O)n(C)n1 | 25
CCCNC(=O)Nc1ccc2c(c1)C(=O)N(C)C[C@@H](OC)[C@H](C)CN(C(=O)C1CCC1)[C@@H](C)CO2 | 0
CC(C)CC#Cc1ccc([C@@H]2[C@H]3CN(S(=O)(=O)c4ccc(F)cc4)CCCCN3[C@H]2CO)cc1 | -6
Cc1cc(C(=O)Nc2cccc3c2O[C@H](CN(C)C(=O)Nc2ccccc2)[C@@H](C)CN([C@H](C)CO)C3=O)n(C)n1 | -2
C[C@@H]1CN([C@H](C)CO)C(=O)Cc2cc(NC(=O)NC3CCCCC3)ccc2O[C@@H]1CN(C)C | -4
C[C@@H]1CN([C@H](C)CO)C(=O)c2cccc(NS(=O)(=O)c3ccccc3)c2O[C@@H]1CN(C)C(=O)NC1CCCCC1 | 13

Brought forward from above: two compounds, then new ones.
SMILES | UUG fidelity
C[C@@H]1CN([C@H](C)CO)C(=O)Cc2cc(NC(=O)NC3CCCCC3)ccc2O[C@@H]1CN(C)C | -4
C[C@@H]1CN([C@H](C)CO)C(=O)c2cccc(NS(=O)(=O)c3ccccc3)c2O[C@@H]1CN(C)C(=O)NC1CCCCC1 | 13
CCN(C[C@H]1[C@H](c2ccc(-c3cccnc3)cc2)[C@@H](CO)N1C(C)=O)C(C)=O | -9
CC(C)NC(=O)N(C)C[C@H]1Oc2ccc(NS(=O)(=O)c3ccc(F)cc3)cc2CC(=O)N([C@@H](C)CO)C[C@H]1C | 7
C[C@H](CO)N1C[C@H](C)[C@H](CN(C)Cc2ccc3c(c2)OCO3)Oc2c(NC(=O)c3ccc(-c4nccs4)cc3)cccc2C1=O | -3
CCS(=O)(=O)Nc1ccc2c(c1)C(=O)N(C)[C@@H]1CC[C@H](CC(=O)NCc3ccc(OC)cc3)O[C@H]1CO2 | -2
CO[C@H]1CN(C)C(=O)c2cc(NC(=O)c3ccccc3)ccc2OC[C@@H](C)N(C(=O)CN(C)C)C[C@@H]1C | 1
O=C(Nc1cccc(Cl)c1)N1C[C@H]2[C@@H](c3ccccc31)[C@H](CO)N2C(=O)c1ccncc1 | 2
CNC[C@H]1Oc2ccc(NC(=O)Nc3ccc(F)cc3)cc2CC(=O)N([C@@H](C)CO)C[C@H]1C | 13
COCC(=O)N1CC[C@@H]2[C@H](CO)Nc3ccc(C#Cc4cccc(F)c4)cc3[C@@H]21 | 6
OC[C@@H]1[C@H](c2ccc(-c3cccnc3)cc2)[C@@H]2CN(CC3CCOCC3)CCCCN12 | -15
O=C(Nc1ccc(Cl)cc1)N1C[C@@H]2[C@H](c3ccccc31)[C@@H](CO)N2C(=O)c1ccccn1 | -3
CC(C)NC(=O)N1C[C@H]2[C@@H](c3ccccc31)[C@H](CO)N2C(=O)Nc1cccc(F)c1 | 12
C[C@@H]1CN([C@H](C)CO)C(=O)Cc2cc(NS(=O)(=O)c3ccccc3)ccc2O[C@@H]1CN(C)C(=O)NC1CCCCC1 | -8
CC(C)NC(=O)N(C)C[C@H]1Oc2ccc(NC(=O)Nc3ccc(F)cc3)cc2C(=O)N([C@@H](C)CO)C[C@H]1C | 8
CO[C@@H]1CN(C)C(=O)c2cc(NC(=O)C3CC3)ccc2OC[C@H](C)N(Cc2ccc(F)cc2)C[C@H]1C | -2
O=C(Nc1ccccc1F)N1C[C@H]2[C@@H](c3ccccc31)[C@H](CO)N2C(=O)c1ccc(F)cc1 | 9
COCC(=O)N1C[C@@H]2[C@H](c3ccccc31)[C@H](CO)N2Cc1ccccc1F | 14
CC(C)NC(=O)N(C)C[C@@H]1Oc2ccc(NC(=O)Nc3ccc4c(c3)OCO4)cc2C(=O)N([C@H](C)CO)C[C@@H]1C | 1
C[C@H](CO)N1C[C@H](C)[C@H](CN(C)C(=O)Nc2ccc(C(F)(F)F)cc2)Oc2c(NC(=O)c3nc4ccccc4s3)cccc2C1=O | 0
COc1cccc(-c2ccc3c(c2)[C@@H]2[C@@H](CCN2Cc2ccccc2OC)[C@@H](CO)N3)c1 | -10
CN(C)CC(=O)Nc1ccc2c(c1)[C@@H]1C[C@@H](CC(=O)N3CCN(C)CC3)O[C@H](CO)[C@@H]1O2 | -6
O=C(NC[C@H]1N[C@H](CO)[C@@H]1c1ccc(-c2ccccc2F)cc1)c1ccccc1 | -14
CC(=O)N1CCCCN2[C@H](CO)[C@H](c3ccc(-c4cccc(C)c4)cc3)[C@H]2C1 | 1
CCC(=O)Nc1ccc2c(c1)C(=O)N(C)C[C@H](OC)[C@H](C)CN(Cc1ccccc1F)[C@H](C)CO2 | -10
CC(C)CC#Cc1ccc([C@@H]2[C@H]3CN(S(=O)(=O)Cc4ccccc4)CCCCN3[C@H]2CO)cc1 | -9
N#Cc1cccc(-c2ccc([C@H]3[C@@H](CO)N4CCCCN(C(=O)Nc5ccccc5)C[C@@H]34)cc2)c1 | -8

Sorted by formula weight (high to low): part of the list above
SMILES | UUG fidelity
C[C@H](CO)N1C[C@H](C)[C@H](CN(C)C(=O)Nc2ccc(C(F)(F)F)cc2)Oc2c(NC(=O)c3nc4ccccc4s3)cccc2C1=O | 0
C[C@@H]1CN([C@H](C)CO)C(=O)Cc2cc(NS(=O)(=O)c3ccccc3)ccc2O[C@@H]1CN(C)C(=O)NC1CCCCC1 | -8
CC(C)NC(=O)N(C)C[C@H]1Oc2ccc(NS(=O)(=O)c3ccc(F)cc3)cc2CC(=O)N([C@@H](C)CO)C[C@H]1C | 7
CC(C)NC(=O)N(C)C[C@@H]1Oc2ccc(NC(=O)Nc3ccc4c(c3)OCO4)cc2C(=O)N([C@H](C)CO)C[C@@H]1C | 1
CCS(=O)(=O)Nc1ccc2c(c1)C(=O)N(C)[C@@H]1CC[C@H](CC(=O)NCc3ccc(OC)cc3)O[C@H]1CO2 | -2
CC(C)NC(=O)N(C)C[C@H]1Oc2ccc(NC(=O)Nc3ccc(F)cc3)cc2C(=O)N([C@@H](C)CO)C[C@H]1C | 8
CO[C@@H]1CN(C)C(=O)c2cc(NC(=O)C3CC3)ccc2OC[C@H](C)N(Cc2ccc(F)cc2)C[C@H]1C | -2
CCC(=O)Nc1ccc2c(c1)C(=O)N(C)C[C@H](OC)[C@H](C)CN(Cc1ccccc1F)[C@H](C)CO2 | -10
CNC[C@H]1Oc2ccc(NC(=O)Nc3ccc(F)cc3)cc2CC(=O)N([C@@H](C)CO)C[C@H]1C | 13
O=C(Nc1ccccc1F)N1C[C@H]2[C@@H](c3ccccc31)[C@H](CO)N2C(=O)c1ccc(F)cc1 | 9
CN(C)CC(=O)Nc1ccc2c(c1)[C@@H]1C[C@@H](CC(=O)N3CCN(C)CC3)O[C@H](CO)[C@@H]1O2 | -6
COc1cccc(-c2ccc3c(c2)[C@@H]2[C@@H](CCN2Cc2ccccc2OC)[C@@H](CO)N3)c1 | -10
OC[C@@H]1[C@H](c2ccc(-c3cccnc3)cc2)[C@@H]2CN(CC3CCOCC3)CCCCN12 | -15
CC(C)NC(=O)N1C[C@H]2[C@@H](c3ccccc31)[C@H](CO)N2C(=O)Nc1cccc(F)c1 | 12
COCC(=O)N1CC[C@@H]2[C@H](CO)Nc3ccc(C#Cc4cccc(F)c4)cc3[C@@H]21 | 6
CC(=O)N1CCCCN2[C@H](CO)[C@H](c3ccc(-c4cccc(C)c4)cc3)[C@H]2C1 | 1
COCC(=O)N1C[C@@H]2[C@H](c3ccccc31)[C@H](CO)N2Cc1ccccc1F | 14

Continued.
SMILES | UUG fidelity
CN(C)C(=O)c1cccc(-c2ccc([C@H]3[C@H](CO)N4CCCCN(C(=O)C5CCC5)C[C@@H]34)cc2)c1 | -10
O=C(NCc1ccc(F)cc1)[C@H]1[C@H](CO)[C@H]2Cn3c(cccc3=O)[C@@H]1N2Cc1cccnc1 | -13
CN1C(=O)c2cc(NC(=O)NC3CCCC3)ccc2OC[C@H]2O[C@@H](CC(=O)O)CC[C@@H]21 | -1
COC(=O)N(C)C[C@H]1OCc2ccccc2-c2c(n(C)c3ccccc23)C(=O)N([C@@H](C)CO)C[C@H]1C | 11
CN1c2ccc(-c3ccccc3F)cc2[C@@H]2[C@@H](CCN2S(=O)(=O)c2ccccc2F)[C@@H]1CO | -10
C[C@@H]1CN([C@H](C)CO)C(=O)c2cc(NC(=O)Nc3ccc(F)cc3)ccc2O[C@H]1CN(C)Cc1ccc(C(=O)O)cc1 | 15
C[C@@H](NC(=O)C[C@H]1C[C@H]2c3cc(NC(=O)C4CCC4)ccc3O[C@H]2[C@@H](CO)O1)c1ccccc1 | -3
C[C@@H]1CN([C@@H](C)CO)C(=O)c2ccccc2-c2ccccc2CO[C@@H]1CN(C)C(=O)c1ccccc1 | 15
CN1c2ccc(-c3ccc(F)cc3)cc2[C@@H]2[C@@H](CCN2C(=O)C2CCOCC2)[C@@H]1CO | 22
COc1ccc(CN2C[C@@H](C)[C@H](OC)CN(C)C(=O)c3cc(NC(=O)c4nc5ccccc5s4)ccc3OC[C@H]2C)cc1 | 2
O=C(NC1CCC1)[C@@H]1[C@@H](CO)[C@@H]2Cn3c(ccc(-c4ccccc4F)c3=O)[C@H]1N2C(=O)CC1CC1 | 14
O=C(C1CC1)N1C[C@@H]2[C@H](c3ccccc31)[C@H](CO)N2C(=O)c1ccccc1F | -5
COc1ccc(CN2C[C@H](C)[C@H](OC)CN(C)C(=O)c3cc(NC(C)=O)ccc3OC[C@@H]2C)cc1 | 25
C[C@H]1CN([C@@H](C)CO)C(=O)CCCn2nncc2CO[C@H]1CN(C)C(=O)Nc1cccc(C(F)(F)F)c1 | 0

Compound activity deposited in PubChem by Broad Institute.
